# HSV replic up – HSV replication enhancement. HSV replication augmentation in cells, fold increase. maximum fold increase. actives 0.005% (n = 220,000). AID 1956;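 active = peak rise of 1.5-fold or more in the series; tested in PC3 cells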;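 note: first round at 10 µM; read as green reporter fluorescence; hits show the peak of a series up to 25 µM; 1 = signal of infected wells without compound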
# GALR2 agonist – agonists of human galanin receptor 2 (GALR2) | GALR2-expressing cells, agonist activation read-out | activation, %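 (tested at 5 µM)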 | actives 0.48% (n = 140,000);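 active = above mean plus 3 SD of all compounds, about 5% in these data, not always enough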;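 note: 0% = vehicle buffer wells and 100% = reference agonist at full effect; tested in CHO reporter cells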
# Target sequence (O43603 whole entry, looked up): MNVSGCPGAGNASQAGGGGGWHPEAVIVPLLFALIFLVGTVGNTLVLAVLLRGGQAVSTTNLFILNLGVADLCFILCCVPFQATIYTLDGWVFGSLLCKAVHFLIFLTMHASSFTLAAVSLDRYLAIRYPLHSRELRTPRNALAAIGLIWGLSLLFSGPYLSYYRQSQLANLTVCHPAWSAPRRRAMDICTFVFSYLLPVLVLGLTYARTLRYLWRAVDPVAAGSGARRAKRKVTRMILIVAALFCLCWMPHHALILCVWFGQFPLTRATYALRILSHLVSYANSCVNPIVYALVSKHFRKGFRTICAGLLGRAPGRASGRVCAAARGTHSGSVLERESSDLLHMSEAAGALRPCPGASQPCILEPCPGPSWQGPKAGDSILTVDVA
# RGS16-Gao – regulators of human RGS16-Galphao interaction | binding response (% of control), % at 10 µM | O15492+P09471 | bead-based flow cytometry RGS16-Galphao binding, fluorescence; actives lie on both sides | actives 0.38% (n = 220,000);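 active = below 25% or above 175%, edge rows of some plates excepted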;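 note: Galphao activated by GDP with aluminum fluoride before binding; 100% = wells without compound and 0% = beads without RGS; some results beyond the cut were filed as inactive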
# Target sequence (O15492 whole entry, looked up): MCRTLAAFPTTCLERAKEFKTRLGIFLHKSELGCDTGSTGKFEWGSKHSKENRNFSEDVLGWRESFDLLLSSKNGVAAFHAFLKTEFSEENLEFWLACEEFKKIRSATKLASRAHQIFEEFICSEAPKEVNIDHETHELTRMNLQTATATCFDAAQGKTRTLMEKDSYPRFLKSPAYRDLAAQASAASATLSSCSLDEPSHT
# Target sequence (P09471 whole entry, looked up): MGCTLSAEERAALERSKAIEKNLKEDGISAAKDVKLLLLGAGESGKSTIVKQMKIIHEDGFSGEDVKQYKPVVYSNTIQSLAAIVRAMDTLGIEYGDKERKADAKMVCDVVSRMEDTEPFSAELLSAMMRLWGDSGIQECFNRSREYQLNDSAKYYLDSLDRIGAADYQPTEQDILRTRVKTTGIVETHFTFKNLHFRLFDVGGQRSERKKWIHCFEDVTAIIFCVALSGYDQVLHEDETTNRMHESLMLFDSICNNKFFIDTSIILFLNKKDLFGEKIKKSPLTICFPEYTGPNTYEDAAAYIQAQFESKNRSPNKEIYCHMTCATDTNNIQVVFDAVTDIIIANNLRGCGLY
# PKD1 kinase inh – PKD1 (human) kinase inhibition; Q15139; PKD1 kinase fluorescence polarization assay; inhibition, %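 (about 10 µM by stock and volumes)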; actives 0.056% (n = 200,000); AID 797;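 active = inhibition of 50% or more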;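 note: controls were vehicle for no effect and a reference inhibitor for full effect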
# INS promoter inh – TRM-6 insulin promoter activity inhibition; TRM-6 cells (human fetal islet line), insulin promoter-eGFP reporter, imaging; reporter expression induced with tamoxifen; inhibition, % at 2 µM; actives 0.9% (n = 130,000);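 active = inhibition above the mean plus 3 SD, with well images judged a real hit on visual review, cut at about 60% in these data, passing the limit was not always enough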
# INS promoter inh cell count – also measured in INS promoter inh; calls as there; normalized cell count, %; measured here: cell count, toxicity; reference of the scale not given here;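 cells exposed to compound for 48 h; stained nuclei by imaging scaled within each plate; lower means fewer cells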
# HSV replic up primary fold – second read-out of HSV replic up, no call of its own (marks repeat the call); fold increase; compound at 10 µM; measured here: primary screen fold increase 10 uM; tested in PC3 cells;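 GFP signal in the first replicate; 1 = infected wells without compound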
# Starred values were filed as active, the others as inactive; i = inactive; / = no result given. No enrichment for hits; overall some 1.3% were active at least once.
nr	smiles	HSV replic up primary fold	RGS16-Gao	INS promoter inh cell count	HSV replic up	GALR2 agonist	PKD1 kinase inh	INS promoter inh
1	COc1ccc(CC(=O)Nc2cccc(C(=O)Nc3cccc(C)c3)c2)cc1	0.83	104	/	i	/	-2	/
2	O=C(NCCc1ccccc1)c1ccc(-n2cnnn2)cc1	1.1	80	/	i	-4.2	-1	/
3	CCC1C(=O)NCCN1Cc1nc(-c2ccc(C)s2)oc1C (configuration not stated)	1.1	102	/	i	/	-2	/
4	COc1cc2c(cc1OC)C(C(=O)N(C)Cc1ccccc1)C(c1cccnc1)N(C)C2=O (configuration not stated)	0.88	102	85	i	/	-1	14
5	O=C(c1ccc(N2C(=O)C3CCCCC3C2=O)cc1)N1CCCCC1 (configuration not stated)	0.95	104	92	i	-1.2	-7	-22
6	Cc1nnc(SCC(=O)NC23CC4CC(CC(C4)C2)C3)n(N)c1=O	0.86	102	/	i	/	-5	/
7	COc1ccc(OCC(=O)NNC(=O)c2ccccn2)cc1	/	100	119	/	-2.2	4	19
8	CSc1nnc(-c2cnccn2)n1CCCN1CCCC1=O	0.96	104	92	i	-2.3	-2	-6
9	Cc1nnc(-c2cnn(C)c2N)n1Cc1cccc(Cl)c1	0.98	98	54*	i	-2.0	-1	89*
10	COc1cc(OC)cc(C(=O)NCC(=O)OCc2csc(-c3ccccc3)n2)c1	1.1	54	130	i	-1.9	-8	12
11	COc1cc(S(=O)(=O)Nc2cccc(C)c2)ccc1NC(=O)c1cccnc1	0.94	109	96	i	-0.9	4	7
12	Cc1c(Cl)cccc1NC(=S)N(CCCN1CCOCC1)Cc1cccs1	0.96	128	99	i	-0.7	-4	-17
13	CCCCOc1ccc(N(CC(=O)NC2CCCC2)C(=O)CCC(=O)Nc2ccccn2)cc1	0.94	100	57	i	1.2	-16	42
14	CN(C)C(=O)OCC1COc2ccccc2O1 (configuration not stated)	0.93	144	/	i	/	/	/
15	c1ccc(OCCOc2cccc3cccnc23)cc1	0.89	118	152	i	0.3	-2	3
16	CC(=O)c1ccc(N2CCN(c3ccc(C(F)(F)F)cn3)CC2)cc1	0.94	107	/	i	-1.4	1	/
17	O/N=C/c1ccccc1Oc1ccc(Cl)cc1	1.1	97	/	i	/	-7	/
18	COCCSc1nc(N)c2c3c(sc2n1)CN(C)CC3	1.2	85	/	i	/	/	/
19	CCOC(=O)c1c(N2C(=O)C3C4C=CC(C4)C3C2=O)sc2c1CCC(C)C2 (configuration not stated)	0.89	99	/	i	-1.0	-8	/
20	O=C(c1ccc(-c2cccc(C(F)(F)F)c2)o1)N1CCOCC1	1	100	105	i	-0.1	-3	33
21	COc1ccc(C)cc1NC(=O)C(OC(=O)c1ccc(Cl)c(S(=O)(=O)N(C)c2ccccc2)c1)c1ccccc1 (configuration not stated)	0.98	59	/	i	-1.0	-6	/
22	CN(C)/C=N/C(=S)Nc1ccc(Cl)cc1Cl	0.99	106	125	i	/	-7	14
23	O=C(c1cccc([N+](=O)[O-])c1)N1CCN(c2ccc(Cl)cc2)CC1	0.92	109	101	i	-1.2	-1	6
24	CC1Cc2ccccc2N1C(=O)C1CCCN(S(=O)(=O)c2cccc3nsnc23)C1 (configuration not stated)	0.81	110	/	i	0.2	-4	/
25	CC1CCC2(CC1)NC(=S)N(C(C)(C)C)N2 (configuration not stated)	0.95	103	/	i	/	/	/
26	O=C(Nc1cccc(C(F)(F)F)c1)Nc1ccc(N2CCCC2)c(S(=O)(=O)Nc2ccccc2Cl)c1	0.81	86	95	i	0.1	-10	21
27	Cc1ccc(CSCCC(=O)NCCC2=CCCCC2)cc1	1	99	115	i	-0.5	5	-24
28	CC(C)CC(NC=C1C(=O)OC(C)(C)OC1=O)C(=O)O (configuration not stated)	0.81	100	107	i	-0.9	-9	0
29	Cc1cccn2cc(-c3ccc(Cl)cc3)nc12	1.1	101	/	i	/	-1	/
30	COc1ccc(S(=O)(=O)NCCC(=O)NCc2ccc(F)cc2)cc1	1.2	101	108	i	-2.3	-6	-100
31	Cc1ccc2cc(CCNC(=O)Cc3cccs3)c(=O)[nH]c2c1	/	86	88	/	-1.8	-3	-202
32	Nc1nc(CSC(=S)N2CCOCC2)nc(Nc2ccccc2)n1	0.94	108	148	i	-0.2	-10	-18
33	COc1ccc(C2=NN(S(C)(=O)=O)C(c3ccc4nccnc4c3)C2)cc1 (configuration not stated)	1.1	101	114	i	-1.0	-9	-48
34	CC(=O)N/C(=C/c1ccccc1)C(=O)NC(Cc1ccccc1)C(=O)O (configuration not stated)	0.84	104	140	i	0.4	-3	-7
35	CCc1ccccc1NC(=O)CSc1nc2ccccc2n1CC(=O)N1CCCC1	1	102	101	i	-1.8	-10	27
36	CC(C)n1c(SCC(=O)Nc2ccccc2)nc2c1c(=O)n(C)c(=O)n2C	1.1	51	120	i	-2.0	-4	30
37	O=C(Nc1cccc([N+](=O)[O-])c1)c1cnccn1	0.93	40	61	i	-1.3	2	-27
38	COc1ccc(-c2c(-c3ccc(OCC(=O)NN)cc3O)n[nH]c2C)cc1	0.81	100	/	i	/	/	/
39	c1ccc(-c2cn3c(n2)-c2ccccc2C3)cc1	0.89	98	/	i	-1.1	-1	/
40	COC(=O)c1ccc(CSc2nnc(CNC(=O)COc3ccc(Cl)cc3)o2)o1	0.93	101	96	i	-3.0	-9	-7
41	CCCOC(=O)C(C)n1c(-c2ccccc2)nc2ccccc2c1=O (configuration not stated)	/	104	57	/	-0.3	-5	25
42	CNc1nc(SC(C)C(=O)Nc2ccc(Cl)c(Cl)c2)nc(N2CCOCC2)n1 (configuration not stated)	0.95	115	201	i	/	0	21
43	CCOC(=O)N1CCC(N2Cc3cccc(C(=O)Nc4ccc(F)cc4)c3C2=O)CC1	0.64	102	132	i	-1.1	-12	-20
44	O=C(NCc1cccs1)c1cc(-c2cccs2)on1	1.3	107	120	i	-2.1	-8	15
45	CCOC(=O)Cc1csc(N/N=C\c2cccc(Br)c2)n1	/	104	102	/	-2.5	3	31
46	CCOC(=O)Cn1c(=O)oc2cc(S(=O)(=O)N(C)Cc3ccco3)ccc21	0.91	88	/	i	-3.5	7	/
47	CCOC(=O)C1(Cc2ccccc2C(F)(F)F)CCN(C(C)CCn2cccn2)CC1 (configuration not stated)	0.89	107	73	i	/	-5	-50
48	COc1cc(NC(=S)NC(=O)c2ccccc2F)ccc1NC(=O)c1cccs1	0.94	100	/	i	/	-7	/
49	CCNc1sc(C(=O)c2cccs2)c(N)c1C#N	1.1	101	97	i	-2.6	46	-189
50	Cn1nnnc1SCC(=O)Nc1nc2c(s1)CCCC2	0.92	108	43	i	-2.1	-6	28

# Next compounds.
nr	smiles	HSV replic up primary fold	RGS16-Gao	INS promoter inh cell count	HSV replic up	GALR2 agonist	PKD1 kinase inh	INS promoter inh
51	Cc1cc(N=Nc2ccc(C)c(N=Nc3cc(C)c(N)cc3N)c2)c(N)cc1N	0.85	100	/	i	/	/	/
52	CC(C)NC(=O)c1ccccc1NC(=O)C(C)Oc1ccccc1 (configuration not stated)	1.1	100	/	i	/	-3	/
53	O=C(Oc1c(CN2CCOCC2)cc(Cl)c2cccnc12)c1ccccc1Cl	0.64	99	/	i	/	-3	/
54	COC(=O)c1ccccc1NC(=O)/C=C/c1cc(OC)c(OC)c(OC)c1	0.99	96	74	i	-0.5	4	-15
55	CCOC(=O)c1ccc(NC(=S)N(CCCN2CCN(C)CC2)Cc2cccs2)cc1	0.95	98	/	i	/	-6	/
56	Cc1ccc(SCCC(=O)Nc2ccccc2C(=O)NC2CCCCC2)cc1	0.96	16	93	i	-0.9	17	-22
57	O=C(c1ccncc1)c1ccc(Br)cc1	0.98	98	112	i	-2.2	-8	-44
58	Cc1ccc(O)c(C(=O)c2cnc3c(c2)c(-c2ccc(F)cc2)c(C#N)c(=O)n3C)c1	0.95	102	/	i	/	-6	/
59	Cc1cccc(C(=O)O/N=C(\c2ccccc2)c2cccnc2)c1	0.85	105	/	i	0.1	3	/
60	O=C1c2ccccc2C(Nc2ccc3c(c2)OCO3)N1Cc1ccco1 (configuration not stated)	0.85	94	/	i	-2.9	-25	/
61	Cc1ccc(-c2nc(CSCC(=O)N3CCOCC3)c(C)o2)cc1	0.97	94	/	i	-1.1	-5	/
62	CCN(C(=O)COc1cccnc1[N+](=O)[O-])C1CCS(=O)(=O)C1 (configuration not stated)	1.1	100	78	i	-1.6	18	-31
63	CN=C1SC(C(=O)O)CC(=O)N1C (configuration not stated)	0.83	100	/	i	-2.3	-2	/
64	CCOC(=O)N/N=C/C=C/c1ccccc1	1	102	/	i	-1.2	1	/
65	CC(NCc1ccc(S(N)(=O)=O)cc1)C(=O)Nc1cc([N+](=O)[O-])ccc1Cl (configuration not stated)	0.91	102	/	i	/	7	/
66	c1ccc(CCc2nc3ccccc3[nH]2)cc1	0.97	100	111	i	/	0	-21
67	N/C(=N\OC(=O)Cc1ccc(-c2ccccc2)cc1)c1cccnc1	0.97	27	68	i	0.2	-5	0
68	Cc1noc(C)c1COc1ccc(C(=O)OCC(=O)NC(=O)C2COc3ccccc3O2)cc1 (configuration not stated)	0.75	97	/	i	0.1	-13	/
69	Cc1ccc(C(OCC(O)CN2CCCCC2CO)c2ccccc2)cc1 (configuration not stated)	0.96	113	/	i	/	-2	/
70	CCCCn1nc(C(=O)N[C@@H](CCSC)c2nc3ccccc3[nH]2)c2ccccc2c1=O	1	104	107	i	-0.1	-1	-26
71	N/C(=N\OC(=O)C1CCCCC1)c1ccncc1	1	114	117	i	/	-6	-79
72	O=C(/C=C/c1ccccc1)C1=C(O)C(=O)N(CCO)C1c1ccc2c(c1)OCO2 (configuration not stated)	0.98	105	/	i	/	-5	/
73	O=C(CCN1CCN(CCO)CC1)Nc1ccc(OCc2ccccc2)cc1	0.9	98	98	i	0.0	-7	-21
74	COc1ccccc1CN1C(=O)[C@@H]2C(CC(N)=O)NC3(C(=O)Nc4c3ccc(Cl)c4C)[C@@H]2C1=O (some centres not stated)	0.84	108	156	i	-1.7	3	31
75	CCN(CC)C(=O)c1sc(NC(=O)c2cccnc2)c(C(=O)OC)c1C	0.85	105	99	i	0.3	-11	-7
76	Cc1ccc(NC(=S)NNC(=S)Nc2ccc(C)cc2C)cc1	1	112	/	i	/	-6	/
77	COc1ccc(N2CCN(C(=O)C(CCSC)N=C3NS(=O)(=O)c4ccccc43)CC2)cc1 (configuration not stated)	0.86	101	176	i	1.4	-10	-55
78	CN(Cc1ccccc1)c1nc2c(c(=O)[nH]c(=O)n2C)n1C	1.1	102	25	i	-0.4	-4	16
79	COc1cccc(OCc2ccc(Cl)cc2)c1C#N	1	110	/	i	/	/	/
80	OCCN1CCN(c2cc(C(F)(F)F)nc3ccccc23)CC1	1	112	/	i	/	/	/
81	COc1cccc(C(=O)O/N=C(\N)c2ccc([N+](=O)[O-])cc2)c1OC	0.87	105	/	i	-1.0	-2	/

# Compound activity as filed in PubChem BioAssay.
